Screening data as filed in PubChem.
UCH37 inh: human UCH37 deubiquitinating enzyme inhibition. Q9Y5K5. purified proteasome/UCH37, Ub-AMC cleavage fluorescence. inhibition, % (test concentration not listed). hit rate 0.33% among 330,000. AID 588478;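 active = mean of two replicates above 20%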;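 also: 0% = compound-free wells with enzyme and 100% = wells lacking proteasome; stock transfer was 100 nL into about 20 µL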
Target sequence (Q9Y5K5 whole entry, looked up): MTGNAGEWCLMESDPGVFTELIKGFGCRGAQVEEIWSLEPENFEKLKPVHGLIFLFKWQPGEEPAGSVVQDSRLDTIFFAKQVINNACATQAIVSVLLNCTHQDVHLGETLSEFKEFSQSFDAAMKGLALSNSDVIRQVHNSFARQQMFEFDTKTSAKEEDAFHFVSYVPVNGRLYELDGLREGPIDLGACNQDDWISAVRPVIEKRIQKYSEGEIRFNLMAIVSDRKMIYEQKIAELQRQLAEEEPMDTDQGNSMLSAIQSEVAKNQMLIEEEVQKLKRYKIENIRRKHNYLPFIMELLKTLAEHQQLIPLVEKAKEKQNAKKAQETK
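assay system = human UCH37 enzyme supplied as purified proteasome complex | amount = proteasome at 0.15 nM in the dispensed enzyme solution | schedule = 30 min compound-proteasome preincubation then 25 min substrate reaction, room temperature | measured by = fluorescence, ex 355 nm, em 460 nm | benchmarks = no-proteasome wells (full inhibition) and compound-free wells (no inhibition)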
E coli growth: blocks Escherichia coli growth; OD600, 23 h; stronger effect = lower value; OD600 absorbance (concentration not given with the values); hit rate 0.21% among 330,000; AID 1053175;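 active = OD600 absorbance below the run mean of sample wells minus 3.6 SD, in any replicate, cut at about 0.56 in these data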;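 also: stock transfer was 300 nL into about 60 µL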
The depositor's hits bear a star.

UCH37 inh	E coli growth	molecule
-6.9	0.72	Cc1nn(-c2ccccc2)c(N2CCCC2)c1C=NNC(=S)Nc1ccccc1F
0.6	0.7	CC(=NNC(=O)c1nn(C)cc1Br)c1cccc(NC(=O)C2CCCC2)c1
-8.1	0.69	COc1ccccc1/C=C/C=NNC(=O)c1ccc(=O)n(C)c1
2.2	0.69	Cn1ccc(C(=O)NN=Cc2ccncc2)n1
5.6	0.63	CC(=O)Oc1ccc(C=NNS(=O)(=O)c2ccc(C)cc2)c(OC(C)=O)c1
10	0.67	COc1ccc(C=NNC(=O)c2[nH]c(C)c(C(=O)NN=Cc3ccc(OC)cc3)c2C)cc1
7.9	0.68	Cc1ccc(C)c(S(=O)(=O)NN=Cc2ccc(N(C)C)cc2)c1
-217	0.71	CCn1c(C=Nn2cnnc2)nc2ccccc21
2.8	0.6	O=C(NN=Cc1ccccc1C(F)(F)F)c1ccc2nc[nH]c2c1
0.7	0.72	CC(C)(C)c1ccc(O)c(C=NO)c1
1.4	0.69	COc1cc(C=NNc2nc(C)cc(=O)[nH]2)cc(OC)c1O
-1.1	0.64	COc1ccc(OC)c(NC(=Nc2nc(C)cc(C)n2)NC(C)=O)c1
4.1	0.71	CN(C)Cc1c(C(=O)NN=Cc2ccoc2)nnn1-c1nonc1N
-19	0.68	Cc1cc(NN=Cc2ccccc2F)c2ccccc2n1
-72	0.71	CC(=NNc1cc(-c2ccccc2)nc(-c2ccccc2)n1)c1ccc(O)c(C)c1
6.6	0.75	C=CCOc1ccc(C=NNC(=O)C(C)Sc2ccccn2)cc1OC (stereo not drawn)
5.2	0.65	NC(=NOC(=O)Cc1ccccc1)c1ccc([N+](=O)[O-])cc1
2.4	0.68	CC(=NNc1ncc(Cl)cc1Cl)c1ccc(OC(F)F)cc1
9.5	0.72	CC(C)c1c(C(=O)NN=C/C=C/c2ccccc2)nnn1-c1nonc1N
4.1	0.68	COc1ccccc1C(=O)NN=C(C)CC(=O)Nc1ccc(Nc2ccccc2)cc1
1.1	0.7	COc1ccc(NC(=O)CCC(=O)NN=Cc2cn(C)nc2C)cc1
1.4	0.72	Cc1cc(C=NNC(N)=O)c(C)n1C1CCCCC1
-0.2	0.65	Cc1nc2scc(-c3ccco3)c2c(=O)n1N=CN(C)C
-22	0.66	Cc1nc(N=C(N)NC(=O)c2ccccc2)nc2ccccc12
1.4	0.71	Cc1ccnc(NC(=O)CSc2nnc3c(n2)[nH]c2ccccc23)c1
7.8	0.69	CC(=NNC(=O)c1cc(-c2cccc([N+](=O)[O-])c2)n[nH]1)c1ccc(Cl)cc1
7.0	0.67	Cc1ccc(C=NNC(=O)c2ccc3c(c2)OCO3)o1
8.8	0.69	Cc1cc(=O)[nH]c(NN=Cc2cccs2)n1
1.4	0.65	CC1CCN(c2nc3c(c(=O)n(C)c(=O)n3C)n2CCSc2nc3ccccc3o2)CC1
-1.5	0.67	Brc1ccc(-c2csc(N=CN3CCOCC3)n2)cc1

Compounds above that contain a halogen (7):
UCH37 inh	E coli growth	molecule
-6.9	0.72	Cc1nn(-c2ccccc2)c(N2CCCC2)c1C=NNC(=S)Nc1ccccc1F
0.6	0.7	CC(=NNC(=O)c1nn(C)cc1Br)c1cccc(NC(=O)C2CCCC2)c1
2.8	0.6	O=C(NN=Cc1ccccc1C(F)(F)F)c1ccc2nc[nH]c2c1
-19	0.68	Cc1cc(NN=Cc2ccccc2F)c2ccccc2n1
2.4	0.68	CC(=NNc1ncc(Cl)cc1Cl)c1ccc(OC(F)F)cc1
7.8	0.69	CC(=NNC(=O)c1cc(-c2cccc([N+](=O)[O-])c2)n[nH]1)c1ccc(Cl)cc1
-1.5	0.67	Brc1ccc(-c2csc(N=CN3CCOCC3)n2)cc1

As entered above:
NC(=NOC(=O)Cc1ccccc1)c1ccc([N+](=O)[O-])cc1 in UCH37 inh = 5.2
Cc1ccc(C=NNC(=O)c2ccc3c(c2)OCO3)o1 in UCH37 inh = 7.0
Cc1cc(=O)[nH]c(NN=Cc2cccs2)n1 in UCH37 inh = 8.8
COc1ccc(NC(=O)CCC(=O)NN=Cc2cn(C)nc2C)cc1 in UCH37 inh = 1.1
CC(=NNC(=O)c1cc(-c2cccc([N+](=O)[O-])c2)n[nH]1)c1ccc(Cl)cc1 in E coli growth = 0.69
C=CCOc1ccc(C=NNC(=O)C(C)Sc2ccccn2)cc1OC (stereo not drawn) in E coli growth = 0.75
Cn1ccc(C(=O)NN=Cc2ccncc2)n1 in UCH37 inh = 2.2

Additional compounds follow.
UCH37 inh	E coli growth	molecule
-2.6	0.74	O=C1CCCC2=C1C(c1ccc(Cl)cc1)n1c(sc(=Cc3ccc4ccncc4c3)c1=O)=N2 (stereo not drawn)
-202	0.64	COc1cc(-c2nc3ccccn3c2N=Cc2ccc(F)cc2)ccc1O
6.0	0.65	O=C(CNC(=O)c1cccc(F)c1)NN=Cc1ccc([N+](=O)[O-])s1
3.2	0.71	O=C1CC(c2ccccc2)n2nc(NC(=O)c3cccnc3)nc2N1 (stereo not drawn)
1.9	0.71	Cc1cccc(C(=O)Nc2ccc(C(=O)NN=Cc3ccc(C)o3)cc2)c1
5.9	0.64	CC(=NNC(=O)CSc1nc(C)[nH]c1[N+](=O)[O-])c1ccc(F)cc1
0.6	0.7	NC(Cc1ccc(Cl)cc1)=NOC(=O)Cc1ccc([N+](=O)[O-])cc1
3.8	0.66	Cc1cccc(C(=O)NN=Cc2ccc(OCC(=O)N3CCCCC3)cc2)c1
1.8	0.73	CC(=NNc1cc(Cl)nc(C)n1)c1ccc(C)cc1
0.4	0.68	Cc1ccc(-c2nnc(SCC(=O)NN=Cc3ccccc3C(=O)O)n2C2CCCCC2)cc1
1.3	0.68	O=C(CN(Cc1ccccc1)S(=O)(=O)c1ccc(Br)cc1)NN=Cc1ccccc1C(=O)O
1.9	0.69	CC(=NN=Cc1cccc(F)c1)c1nnn(-c2nonc2N)c1C
1.3	0.67	Cc1ccccc1OCC(=O)NN=C1CC(=O)CC(C)(C)C1
6.0	0.67	CCOC(=O)c1c(N=CN(C)C)sc2c1CCC2
1.5	0.72	Cn1cccc1CC(=O)NN=C/C=C/c1ccccc1
18	0.66	O=C(O)c1ccccc1NS(=O)(=O)c1ccc(NN=Cc2ccc(O)c(O)c2)c([N+](=O)[O-])c1
2.6	0.66	CCOc1ccc(C=NNC(=O)CC(=O)NCCc2ccccc2)cc1
4.5	0.7	Cc1ccc2[nH]c(C(=O)NN=Cc3ccc([N+](=O)[O-])cc3)c(C)c2c1
3.3	0.66	Nc1nonc1-n1nnc(C(=O)NN=Cc2ccncc2)c1-c1cccs1
3.1	0.73	CC(CC(=O)Nc1ccc(F)cc1)=NNC(=O)c1ccccn1
6.3	0.71	C[n+]1ccc(C(=O)NCCC[N+](C)(C)C)cc1C=NO
2.2	0.71	COc1ccc(C(C)=NN2CCOCC2)c(O)c1
3.0	0.66	COc1cc(C=NNC(=O)CNC(=O)c2ccccc2)ccc1OC(=O)c1cccs1
3.8	0.55	CC(=NNc1ccnc2cc(Cl)ccc12)c1ccc(O)cc1
15	0.66	CN=c1scc(C)n1N=Cc1ccc(O)c(O)c1O
1.6	0.68	COc1cc(C=NO)ccc1OCc1ccc(Cl)cc1
-0.3	0.66	CC(=NNc1nc2ccccc2[nH]1)c1ccc2c(c1)OCCO2
3.6	0.7	CC(=NNC(=O)c1ccncc1)c1cc2ccccc2oc1=O
11	0.65	Cc1ccc(SC(=NS(=O)(=O)c2ccc(Cl)cc2)c2ccccc2)cc1
-25	0.79	Cc1ccc(-c2cc(C(=O)NN=Cc3c(C)nn(C)c3C)c3ccccc3n2)cc1C

UCH37 inh	E coli growth	molecule
18	0.63	Nc1c(Cl)ncnc1NN=Cc1cccc(O)c1
6.2	0.66	COCCCNC(=S)NN=Cc1ccc2c(c1)OCO2
16	0.65	O=[N+]([O-])c1cc(C=NNc2nc3ccccc3[nH]2)c(O)cc1O
7.7	0.79	COc1ccc(CCN2C(=O)C3C4CC(C5C(C(=O)NN=Cc6ccc(Cl)cc6)=NOC45)C3C2=O)cc1OC (stereo not drawn)
3.1	0.69	O=S(=O)(N=C(c1ccccc1Cl)N1CCOCC1)c1ccccc1
4.5	0.66	COCc1cc(C)nc(OCC(=O)NN=Cc2ccc(C)o2)c1C#N
7.4	0.77	Cc1ccc(NN=C2CCCNC2=O)cc1
0.1	0.72	O=C(O)CCC(=NNC(=O)CNC(=O)Cc1ccc(Cl)cc1)c1ccccc1
-0.6	0.69	Cc1cccc(OCC(=O)NN=CCC(C)c2ccccc2)c1C (stereo not drawn)
4.3	0.75	CC(=NOc1nc(C)cc(C)n1)c1ccc(Br)cc1
1.4	0.7	COCCCNC(=S)NN=Cc1ccc(O)cc1O
-0.1	0.69	O=C(COc1ccccc1)NN=Cc1ccc(O[C@@H]2O[C@H](CO)[C@@H](O)[C@H](O)[C@H]2O)cc1
2.7	0.72	CC(=NNC(=O)CNc1cccc(C)c1)c1ccc(Br)s1
3.6	0.68	C=CCON=CC1=C(O)C(C(=O)OC)C(C)(C)CC1=O (stereo not drawn)
2.6	0.57	CCCCCCC=NNc1nnc(Cc2ccc(OC)c(OC)c2)c(=O)[nH]1
2.8	0.71	Cc1ccc(OCC(=O)NN=Cc2ccncc2)cc1
4.0	0.62	Cc1cc(C)nc(N=C(N)Nc2ccc(OCc3ccccc3)cc2)n1
2.0	0.72	CC1CCCC(C)N1N=Cc1ccccc1C(=O)O (stereo not drawn)
2.6	0.68	CC(=O)Nc1ccc(C(C)=NNC(=O)c2ccc(CN3CCOCC3)cc2)cc1
1.9	0.64	Cn1ncc2c(ON=C(N)c3ccc(C(C)(C)C)cc3)ncnc21
7.1	0.68	COc1ccc(/C=C\C(=O)NCC(=O)NN=Cc2ccc(O)cc2O)cc1
2.0	0.7	CC(Oc1cc(Cl)ccc1Cl)C(=O)NN=Cc1ccnn1C (stereo not drawn)
7.4	0.7	CCN=c1scc(C)n1N=Cc1ccsc1
-0.9	0.72	N#CC(C(=O)N1CCOCC1)=c1sc(=Cc2ccccn2)c(=O)n1-c1ccccc1
1.9	0.67	CCOC(=O)N1CCC(NC(=O)C(NC(=O)C2CCC(C)CC2)C(C)CC)CC1 (stereo not drawn)
-31	0.72	Cc1nnc(SCC(=O)NN=Cc2ccc(-c3ccc(C)c(Cl)c3)o2)s1
4.5	0.64	CC(=NNC(=O)c1cc(-c2ccc(Cl)s2)[nH]n1)c1ccncc1
-1.0	0.72	Cn1c(O)c(C=NC(CC(N)=O)C(=O)O)c(=O)n(C)c1=O (stereo not drawn)
-176	0.64	COc1cc(-c2nc3ccccn3c2N=Cc2cc(OC)c(OC)c(OC)c2)ccc1O
2.6	0.65	CCOC(=O)C1CCCC1=NNC(=O)CN(c1cc(OC)ccc1OC)S(=O)(=O)c1ccccc1 (stereo not drawn)

In the list so far, 2 contain a tert-butyl group:
UCH37 inh	E coli growth	molecule
0.7	0.72	CC(C)(C)c1ccc(O)c(C=NO)c1
1.9	0.64	Cn1ncc2c(ON=C(N)c3ccc(C(C)(C)C)cc3)ncnc21

Next structures:
UCH37 inh	E coli growth	molecule
-5.1	0.7	COc1ccc(C=NNC(=O)c2sccc2OCc2ccc(F)cc2)cc1OC
0.3	0.62	O=C(C(=NO)c1ccccc1)c1ccccc1
2.5	0.68	O=C(CNC(=O)c1ccc2c(c1)OCCO2)NN=Cc1ccc(Cl)cc1
2.0	0.69	NC(Cc1ccc([N+](=O)[O-])cc1)=NOC(=O)c1ccc(Br)cc1
-10	0.64	CC(Cc1ccccc1)=NNC(=O)CNC(=O)c1ccccc1O
1.2	0.7	O=C(Cc1ccc(Cl)cc1)NN=Cc1cccs1
4.9	0.68	CC(/C=C/c1ccccc1F)=NNC(=O)C(C)C
3.1	0.71	O=C(NN=Cc1cc2c(cc1Br)OCO2)c1c[nH]c2ccccc12
-4.5	0.75	Cc1[nH]c(=O)[nH]c(=O)c1C=NNC(=O)[C@H](CC(C)C)NC(=O)OC(C)(C)C
6.7	0.71	COc1ccc(C=NNC(=O)Cn2nnc3ccccc32)cc1OC
-1.0	0.7	O=C(COc1ccc(Cl)cc1Cl)NN=Cc1ccccn1
1.2	0.65	CCCc1n[nH]c2c1C(=NOCC)CC(C)(C)C2
7.4	0.7	CCN=c1scc(-c2cccs2)n1N=Cc1cc(OC)ccc1O
7.8	0.73	O=[N+]([O-])c1cccc(-c2ccc(C=NNc3nc(N4CCCCC4)nc(N4CCCCC4)n3)o2)c1
-0.4	0.65	CCCCNC(=S)N(C)N=Cc1c(F)cccc1F
1.1	0.71	Cc1cc(C(=O)NN=Cc2ccc3ccccc3c2)n[nH]1
-1.6	0.7	CC(=NNC(=O)c1cc2ccccc2cc1O)c1cc2ccccc2o1
-5.0	0.67	C=CCOc1ccccc1C=NNC(=O)Cc1ccc(C)cc1
0.6	0.69	O=S1(=O)CCC(=NNc2ccc(C(F)(F)F)cn2)c2cc(F)ccc21
-15	0.63	CCOC(=O)c1sc2ncn(N=CN(C)C)c(=O)c2c1C
-2.4	0.7	CC(CC(=O)Nc1ccc2ccccc2c1)=NNC(=O)c1ccc(O)c(O)c1
7.9	0.62	CCc1nnc(NN=Cc2ccccc2Cl)n1N
2.8	0.65	Cc1ccc(-c2c(C(=O)NN=CC3CCCCC3)nnn2-c2nonc2N)cc1
7.8	0.71	COc1ccccc1C=NNC(=O)CSc1cc(C)nc2ccccc12
3.1	0.73	CC(C)CC(C(O)=C(C#N)c1nc2ccccc2[nH]1)N1C(=O)c2ccccc2C1=O (stereo not drawn)
0.4	0.67	CN(C)c1ccc(C=NNC(=O)c2ccc3nc[nH]c3c2)cc1
3.6	0.68	COc1cc(C(=O)Oc2ccc(C=NNC(=O)c3ccncc3)cc2)cc(OC)c1OC
4.8	0.72	O=C(Cc1ccc(Cl)cc1)NN=C1CCCc2ccccc21
4.7	0.67	O=[N+]([O-])c1ccccc1NN=Cc1ccccc1

Not all compounds are listed; count on the stated rates, not on these rows.
